From PubChem
ClpP mod: qHTS Assay for Activators of ClpP; ATP-dependent Clp protease proteolytic subunit (Bacillus subtilis (strain 168)), P80244; purified B. subtilis ClpP, FRET peptide cleavage, 20 min; Potency, µM (highest dose often 57.5 µM), without a hit: at the top dose activity change, negative = active; hit rate 1.9% among 340,000; active = well fitted falling curve with a large enough effect; inconclusive = small, poorly fitted or top-dose-only effect; inactive = no such curve, though single readings can be large or run the other way; further: potency means the concentration at half of the fitted maximal effect; the source files actives as falling curves though it sought activators and does not explain the sign; nearly all actives have a fitted effect of over 65% in size; many hits overshoot -100%
Target sequence (P80244 whole entry, looked up): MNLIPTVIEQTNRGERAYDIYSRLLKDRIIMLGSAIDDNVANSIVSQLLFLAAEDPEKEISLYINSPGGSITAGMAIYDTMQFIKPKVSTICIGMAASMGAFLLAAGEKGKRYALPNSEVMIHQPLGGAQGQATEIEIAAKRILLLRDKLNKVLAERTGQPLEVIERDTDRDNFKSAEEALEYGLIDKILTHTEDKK
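ClpP 10 microg/mL final, pH 8 Tris/KCl buffer with BSA, glycerol, Tween-20; compound pinned in; FRET-FV substrate; RT 20 min; Ex320/Em430; ΔFRET vs ADEP 5.8 microM, DMSO, no enzyme.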
D2 agonist: Beta-Arrestin HTS for Positive Allosteric Modulators of the Human D2 Dopamine Receptor: Agonists | D(2) dopamine receptor (Homo sapiens), P14416 | DiscoveRx PathHunter D2 beta-arrestin, luminescence, 90 min; 100% = 57 uM dopamine signal | activation, % (concentration not given with the values) | hit rate 0.084% among 360,000 | AID 624465, 2012; in the data active = activation above about 40%; inconclusive = about 15% to 40%; inactive = below about 15%; further: compound concentration not given in the record; the text of the record calls up to 30% inactive
Target sequence (P14416 whole entry, looked up): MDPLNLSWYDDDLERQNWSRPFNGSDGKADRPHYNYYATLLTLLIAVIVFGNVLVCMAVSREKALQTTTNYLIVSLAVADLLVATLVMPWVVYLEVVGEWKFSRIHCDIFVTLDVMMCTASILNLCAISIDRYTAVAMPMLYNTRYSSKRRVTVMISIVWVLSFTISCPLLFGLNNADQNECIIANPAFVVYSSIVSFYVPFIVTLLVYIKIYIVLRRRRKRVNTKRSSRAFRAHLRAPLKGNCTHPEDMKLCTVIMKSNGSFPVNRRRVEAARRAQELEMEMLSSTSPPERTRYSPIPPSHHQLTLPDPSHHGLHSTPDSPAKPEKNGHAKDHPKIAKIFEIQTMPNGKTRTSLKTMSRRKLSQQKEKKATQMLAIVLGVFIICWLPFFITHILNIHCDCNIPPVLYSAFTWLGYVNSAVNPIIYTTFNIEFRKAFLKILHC
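DiscoveRx PathHunter D2 beta-arrestin cells (2,100/well) attached overnight, then compound-stimulated 90 min at 37 C in HBSS/10 mM HEPES/0.1% Tween-20 buffer; beta-galactosidase complementation read by luminescence after 1 h at ambient temperature. Dopamine 57 uM final (EC100) as control.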
Sfp inh: qHTS Assay for Inhibitors of Bacillus subtilis Sfp phosphopantetheinyl transferase (PPTase); Biochemical Sfp PPTase activity, qHTS; Potency, µM, for inactives: max response, negative = inhibition, actives largely listed as inhibitors; hit rate 3.5% among 310,000; active means well fitted inhibition curve with a large enough effect; inconclusive means small, poorly fitted or top-dose-only effect, or another doubt; inactive means no such curve, though single readings can be large or run the other way;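 further: the enzyme is Sfp with the accession as filed and its product quenches rhodamine fluorescence; potency means the concentration at half of the fitted maximal effect; 0% = enzyme reaction without inhibitor and -100% = no enzyme wells; top concentration of the series not given in the record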
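Sfp 15 nM + cpd, 15 min RT; start w/ rhodamine-CoA 5 uM, BHQ-2-YbbR 12.5 uM (final); 50 mM Hepes pH 7.6, 10 mM MgCl2, 0.01% NP-40, 0.01% BSA; read 525/598 nm at 0 and 30 min.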
Menin MLL FP FL: qHTS Assay for Inhibitors Targeting the Menin-MLL Interaction in MLL Related Leukemias: Competition With Fluorescein Labeled MLL-derived Peptide | AID 1766, 2009 | 290,000 tested, under 10 active | FP activity change, % at 61.4 µM | Fluorescence polarization, fluorescein-MLL peptide displacement from menin; inconclusive = falling polarisation curve, or a change in total fluorescence; inactive = total fluorescence flat and polarisation flat or rising; no compound was filed as active; the % refers to the polarisation; negative = inhibition;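 further: % of control where 0% means no effect; inhibitors lower the polarisation; unlabelled MLL peptide was the positive control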
gsp antag: qHTS for Antagonists of gsp, the Etiologic Mutation Responsible for Fibrous Dysplasia/McCune-Albright Syndrome: qHTS; gsp-mutant cells, cAMP HTRF, 30 min; control for the full effect not named in the record; hit rate 0.4% among 340,000; AID 624288, 2012; Potency, µM (doses to about 76.9 µM), for inactives: top-dose activity change, negative = inhibition, hits mostly inhibitors; active = falling curve of any shape with a large fitted effect; inconclusive = falling curve, mostly with a smaller effect; inactive = flat or rising curve; cell line not stated here;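 further: intracellular cAMP measured with PDE inhibitor Ro 20-1724 present during compound exposure; potency means the concentration at half of the fitted maximal effect; on the % scale 0 is the no-effect control and ±100 the full control effect; nearly all actives have a fitted effect of over 65% in size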
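Measurement of cellular cAMP by homogeneous time-resolved fluorescence following a 30 min compound exposure at 37C. The PDE inhibitor […] was present throughout; the assay buffer was DPBS with 0.05% BSA and 0.005% Tween 20.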
gsp ag: qHTS for Agonist of gsp, the Etiologic Mutation Responsible for Fibrous Dysplasia/McCune-Albright Syndrome: qHTS; gsp mutant cells, cAMP HTRF, 30 min; control for the full effect not named in the record; Potency, µM (highest dose often 76.9 µM), without a hit: at the top dose activation (cAMP increase), usual class: activators; hit rate 0.13% among 340,000; AID 624287, 2012; active = well fitted activation curve with a large enough effect; inconclusive = small, poorly fitted or top-dose-only effect, or another doubt; inactive = no such curve, though single readings can be large or run the other way; cell line not stated here;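 further: phosphodiesterase inhibitor Ro 20-1724 added with compounds to block cAMP breakdown; potency means the concentration at half of the fitted maximal effect; nearly all actives have a fitted effect of over 60% in size; about a fifth of the inactives were tested at one dose only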
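Cells in DMEM/10% FBS with G418 were pretreated with compounds in DMSO plus […] (300 uM stock) for 30 min at 37C. cAMP was measured by HTRF (cAMP-d2 plus anti-cAMP antibody-K) after 30 min at room temperature.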
PINK1 modulator: A Quantitative High throughput Screen to Identify Chemical Modulators of PINK1 Expression; PINK1 immunofluorescence, high-content cytometry, 24 h; Potency, µM (top dose mostly 76.6 µM), without a hit: at the top dose activation (PINK1 increase), usual class: activators; hit rate 0.2% among 410,000; AID 624263, 2012; active = well fitted activation curve with a large enough effect; inconclusive = small, poorly fitted or top-dose-only effect; inactive = flat fitted curve, though single readings scatter; cell line not stated here;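 further: potency means the concentration at half of the fitted maximal effect; % of control where 0% means no effect; nearly all actives have a fitted effect of over 65% in size; a mitochondrial uncoupler was the plate control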
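Readout is PINK1 immunofluorescence, quantified alongside mitochondrial, cell and nuclear markers by laser-scanning microplate cytometry. Cells from a stable line were exposed to compound titrations (5 concentrations) for 24 hours, with CCCP controls.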
* marks the source's active call; other numbers are inactive results; ? = inconclusive; . = no result given; & = joins results of further samples; [ ] = remark or other dose.

SMILES	ClpP mod	D2 agonist	Sfp inh	Menin MLL FP FL	gsp antag	gsp ag	PINK1 modulator
COc1ccc(OC(=O)c2ccc3nsnc3c2)cc1	1.4%	-1.8	-7%	0.8	9%	9%	0.5%
Cc1nc2sc3c(=O)[nH]nnc3c2c(C)c1Br	-2.8%	3.3	-1%	-6.6	50µM*	?	-1.5%
CCOc1ccc(C2C(C(=O)c3ccco3)=C(O)C(=O)N2CCCn2ccnc2)cc1OCC (centres undefined)	1.4%	-2.2	3%	0.8	9%	?	-0.9%
CC(C)C12CN3CC(C(C)C)(CN(C1)C3c1ccc([N+](=O)[O-])o1)C2=O (centres undefined)	.	2.2	11%	4.2	9%	-13%[15.4 µM]	1.8%
CC(=O)NCCn1c(SCC(=O)NCCC2=CCCCC2)nc2ccccc2c1=O	-0.1%	-3.5	15%	2.1	6%	-20%	.
COCCn1c(C(=O)N2CCCC2)cc2c1C[C@H]1CN(C(=O)c3ccccc3)[C@@](Cc3ccc(F)cc3)(C(=O)OC)[C@@H]21	1.2%	-2.0	-9%&21%	0.6&1.0	-13%	.	1.3%
CCCc1cc(C(=O)Nc2ccc(C(C)=O)cc2)no1	1.9%	-5.3	17%	4.4	5%	4%	0.3%
O=S(=O)(c1ccccc1)c1nc(-c2ccco2)oc1NCCCn1ccnc1	1.8%	-3.4	-8%	5.5	-14%	-2%	-0.8%
COc1ccccc1C1CCN(C(=O)c2cnn(-c3ccccc3)c2C)CC1	-0.3%	?	-11%	-6.0	?	-11%	0.3%
CSc1ncccc1C(=O)NC1CCCc2c1cnn2-c1ccc(C)c(C)c1 (centres undefined)	35%	-1.4	2%	-4.7	?	6%[15.4 µM]	2.4%
CSc1oc(-c2ccccc2)nc1C(N)=O	?	0.3	0%	3.0	3%	?	-5.5%[38.3 µM]
COc1ccc(S(=O)(=O)Nc2ccc3c(c2)C(=O)N([C@H](C)CO)C[C@H](C)[C@@H](CN(C)C(=O)NC2CCCCC2)O3)cc1	-1.2%	1.2	.	.	1%	-27%	2.5%
Cc1ccc(C(=O)Nc2cccc(C(=O)N3CCOCC3)c2)cc1	-1.5%	-2.7	9%	0.0	1%	-10%	.
O=C(NC1CC1)c1cccc(NC(=O)c2cc(S(=O)(=O)N3CCOCC3)ccc2Cl)c1	.	-1.3	.	.	8%	10%[15.4 µM]	2.4%
CCN(C(=O)CSc1nccc(=O)[nH]1)C1CCCCC1	-3.1%	-2.0	.	.	-4%	?	-0.3%

Next section; the last 2 above are carried over.
SMILES	ClpP mod	D2 agonist	Sfp inh	Menin MLL FP FL	gsp antag	gsp ag	PINK1 modulator
O=C(NC1CC1)c1cccc(NC(=O)c2cc(S(=O)(=O)N3CCOCC3)ccc2Cl)c1	.	-1.3	.	.	8%	10%[15.4 µM]	2.4%
CCN(C(=O)CSc1nccc(=O)[nH]1)C1CCCCC1	-3.1%	-2.0	.	.	-4%	?	-0.3%
CCN(CC)C(=O)CCS(=O)(=O)c1cccc2nonc12	.	-4.3	14%	7.1	7%	25%[15.4 µM]	0.9%
O=C(CN(Cc1ccc(F)cc1)C(=O)CCC(=O)Nc1nccs1)NCc1ccccc1	.	2.2	10%	.	15%	-3%[15.4 µM]	0.5%
O=C(O)c1cc([N+](=O)[O-])ccc1C(=O)Nc1ccccc1	-0.7%	-1.2	6%	0.8	4%	22%	-1.1%
CN1CCCC(OC(=O)c2cc(F)c(F)c(F)c2F)C1 (centres undefined)	-1.2%	-0.5	13%	-0.7	-8%	20%[15.4 µM]	0.4%
Cc1ccccc1OCc1nc2ccccc2n1C	0.2%	-2.6	2%	3.1	0%	-22%	6.1%
O=C(c1cccc(S(=O)(=O)N2CCCCC2)c1)N1CCN(c2ccccc2)CC1	-0.9%	-0.7	7%	.	-12%	?	1.3%
CCCn1c(N)c(N(CCOC)C(=O)c2cc(S(=O)(=O)N3CCCCCC3)ccc2OC)c(=O)[nH]c1=O	4.5%	-6.4	5%	.	8%	-2%[15.4 µM]	-0.9%
O=C(Nc1ccccc1)c1ccc(S(=O)(=O)NCC2CCCO2)cc1 (centres undefined)	-0.1%	-1.9	21%	3.1	-2%	-7%	3.2%[38.3 µM]
COC(=O)c1sccc1NC(=O)c1ccccc1C(=O)O	.	-3.0	.	.	11%	-4%[15.4 µM]	2.3%
CCN(CC)CCCNC(=O)CNC(=O)c1nn(-c2ccc(OC)cc2)c(=O)c2ccccc12	.	4.1	23%	-2.2	9%	-24%[15.4 µM]	-0.7%
CC(C)(C)OC(=O)N(CCc1ccccc1)Cc1ccc(OCc2cccc(NC(=O)C3CCCC3)c2)cc1	-1.7%	0.3	.	.	11%	.	-1.3%
COC(=O)c1cc2occc2n1CC(=O)Nc1ccc(C)cc1C	13%	-2.8	-2%	8.5	-3%	4%	16%[38.3 µM]
COc1ccc(C(=O)COC(=O)Cn2[nH]c(=O)c3ccccc3c2=O)c(OC)c1	-7.9%	-1.5	.	.	7%	18%	0.5%
CCOc1ccccc1NC(=O)NNC(=O)c1ccc2ccccc2c1	32µM*	1.2	1%	.	8%	-55%[inhibitor]	0.2%
Cc1cccc(-n2ccnc2SCC(=O)c2c(N)n(C3CC3)c(=O)[nH]c2=O)c1C	-0.5%	-1.3	.	.	5%	-52%[inhibitor]	0.3%
Cc1cc(C)n(C(=O)c2ccc(NC(=O)C3CC3)cc2)n1	-3.8%	-2.4	7%	-0.2	2%	16%	2.3%
CC(N)(C(=O)O)c1cccc(OCc2cccc(Cl)c2)c1 (centres undefined)	0.4%	0.2	-3%	0.9	12%	-6%	-2.4%
Cc1nc2ccccc2nc(C)c1=NO	-2.5%	-3.2	-1%	-22	6%	8%	-0.8%
Cc1nc(NC(=O)COC(=O)/C=C/c2ccco2)c(Cl)cc1Cl	-1.0%	4.7	.	.	14%	?	-1.1%
O=C(CN1CCOc2ccccc21)NC1CCN(Cc2ccccc2)CC1	-7.5%	-3.4	20%	-2.7	5%	1%	0.8%
O=C(NCc1ccc(Cl)c(Cl)c1)c1cc(C2CCCCN2C(=O)C2CCCCC2)on1 (centres undefined)	-0.5%	-3.9	.	.	.	.	5.0%
C=CCSc1nnc(NC(=O)COc2ccccc2)s1	1.0%	-1.1	13%	-0.3	11%	18%	0.1%
CCCS(=O)(=O)N1CCCC(C(=O)NCCN(CC)c2ccccc2)C1 (centres undefined)	2.9%	-1.3	-8%	-0.5	-9%	-25%	0.6%
O=C1CN(C(=O)CSc2nnc(-c3ccccc3)n2Cc2ccc3c(c2)OCO3)c2ccccc2N1	0.6%	-0.8	3%	2.2	8%	-36%	-1.4%
CC(=O)Nc1ccc(NC(=O)CCCc2ccccc2)cc1	-1.0%	-0.3	4%	2.1	-5%	-2%[15.4 µM]	0.6%
O=C(NC1CCSC1=O)c1ccccc1 (centres undefined)	-0.9%	-2.5	15%	2.9	-19%	15%	0.0%
COc1ccc2c(C)cc(N3CCCCCC3)nc2c1	.	-3.1	?	7.1	1%	-20%	?
CCC(=O)n1nc(-c2ccccc2)nc1SCC(=O)Nc1ccc(C)cc1	-0.1%	-1.5	7%	4.2	?	-13%	0.0%
Cc1ccc(CNC(=O)c2ccc(N3CCC4(CC3)CC(c3ccccc3)=NO4)c(NC(=O)c3ccc(Br)cc3)c2)cc1	-16%	-1.0	?	-5.3	6%	.	0.4%
CC(=O)c1ccc(N(C(=O)CNC(=O)c2ccco2)C(C(=O)NCC2CCCO2)c2ccccc2)cc1 (centres undefined)	.	-2.8	-7%	2.2	3%	10%[15.4 µM]	-1.3%
COc1ccc(C(=O)NC(=S)Nc2ccccc2N2CCN(S(C)(=O)=O)CC2)cc1OC	8.1%	-2.4	-3%	2.2	0%	6%	1.6%[38.3 µM]
Cc1cc(NC(=O)COC(=O)c2cccc(S(=O)(=O)N(C)C3CCCCC3)c2)no1	.	0.2	19%	-1.2	-8%	-9%	1.8%

3 records drawn at random from those above:
SMILES	ClpP mod	D2 agonist	Sfp inh	Menin MLL FP FL	gsp antag	gsp ag	PINK1 modulator
Cc1cc(NC(=O)COC(=O)c2cccc(S(=O)(=O)N(C)C3CCCCC3)c2)no1	.	0.2	19%	-1.2	-8%	-9%	1.8%
CC(=O)Nc1ccc(NC(=O)CCCc2ccccc2)cc1	-1.0%	-0.3	4%	2.1	-5%	-2%[15.4 µM]	0.6%
CCCS(=O)(=O)N1CCCC(C(=O)NCCN(CC)c2ccccc2)C1 (centres undefined)	2.9%	-1.3	-8%	-0.5	-9%	-25%	0.6%
